Screens as filed in PubChem.
Rango dissoc inh: inhibitors of RanGTP-induced Rango-importin beta complex dissociation; O95149+P62826; Biochemical FRET Rango-importin beta, RanGTP-induced dissociation; Potency, µM (doses to about 46.1 µM), without a hit: at the top dose activity change, negative = inhibition; actives 0.071% (n = 340,000); active means falling FRET ratio curve, often poorly fitted, with flat reads before Ran was added; inconclusive means other falling curves, or compound fluorescence or quenching; inactive means flat or rising ratio curve;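 further: potency means the concentration at half of the fitted maximal effect; % of control where 0% means no effect; nearly all actives have a fitted effect of over 45% in size; -100% = wells without RanGTP and RCC1; the record marks most hits as doubtful in a second field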
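Rango/importin beta premix (0.1/0.25 uM final), PBS + 1 mM DTT + 0.02% Tween-20 + 0.1% BSA; cpd 5 min RT; FRET pre-read; + RanGTP-RCC1 (0.6 uM Ran, 2 mM GTP, 0.2 uM RCC1); 45 min RT; FRET post-read, ex 430, em 486/530 nm.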
miR-21 reporter: miR-21 reporter, rising signal | HeLa miR-21 FLuc reporter, luciferase, 48 h | Potency, µM (highest dose often 38.3 µM), without a hit: at the top dose reporter change, positive = more light | 340,000 tested, under 10 active | AID 2288; active = well fitted rising curve with a large enough effect; inconclusive = small, poorly fitted or top-dose-only effect; inactive = no such curve, though single readings can be large or run the other way;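 further: % of control where 0% means no effect; miR-21 action dims this reporter so a rising signal means less miR-21 action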
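HeLa miR-21-FLuc reporter line, endogenous miR-21; 2000 cells/well in DMEM/10% FBS; compound titration up to ~40uM final, 48 h, 37 degree Celsius; luciferase detection reagent, 15 min lysis, CCD luminescence.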
GLA inh pH 4.5: inhibitors of human alpha-galactosidase A at pH 4.5; 230,000 tested, under 10 active; purified enzyme, 4-MU-alpha-Gal fluorescence, pH 4.5; P06280; activity change, negative = inhibition, % at 105 µM; inconclusive = small, poorly fitted or top-dose-only inhibition, or a rising curve; inactive = flat fitted curve, though single readings scatter; no compound was filed as active;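 further: 0% = full activity with enzyme and -100% = basal without enzyme; dose as in the result columns while the protocol names 77 µM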
Target sequence (P06280 whole entry, looked up): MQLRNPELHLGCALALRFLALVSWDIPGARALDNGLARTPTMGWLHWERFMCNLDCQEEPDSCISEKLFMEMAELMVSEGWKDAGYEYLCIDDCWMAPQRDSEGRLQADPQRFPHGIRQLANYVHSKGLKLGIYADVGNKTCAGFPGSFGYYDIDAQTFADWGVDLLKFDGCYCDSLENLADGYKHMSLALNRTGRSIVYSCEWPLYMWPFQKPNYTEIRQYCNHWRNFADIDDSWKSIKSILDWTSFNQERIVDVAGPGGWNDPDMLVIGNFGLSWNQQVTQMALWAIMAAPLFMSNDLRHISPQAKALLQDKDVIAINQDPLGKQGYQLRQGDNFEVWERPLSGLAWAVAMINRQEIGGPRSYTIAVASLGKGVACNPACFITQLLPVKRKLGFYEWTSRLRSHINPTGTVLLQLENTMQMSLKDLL
Rango complex inh: inhibitors of Rango-importin beta complex formation | Potency, µM (titrated, usually from 92.2 µM), without a hit: at the highest dose inhibition of complex formation | Q14974 | actives 0.031% (n = 340,000) | Rango CFP/YFP FRET sensor + importin beta, 45 min; active = rising FRET ratio curve, often small or poorly fitted; inconclusive = mostly compound fluorescence or quenching in the first reads; inactive = flat curves in all reads;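 further: potency means the concentration at half of the fitted maximal effect; 0% = DMSO wells and 100% = buffer wells lacking importin beta; nearly all actives have a fitted effect of over 15% in size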
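Inhibition scored from the CFP 486 nm/YFP 530 nm FRET ratio 45 min after adding 0.125 microM importin beta to 50 nM Rango biosensor preincubated 5 min with compound (room temperature, PBS with DTT, Tween-20, BSA). No-importin wells as positive control.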
The depositor's hits bear a star. Only part of the results is shown; rates above refer to the full screens.

Screening O=C(O)C1CCCN1S(=O)(=O)c1ccc(Cl)c(Cl)c1 (stereo not given) returned Rango dissoc inh 2%, miR-21 reporter -1%, GLA inh pH 4.5 0 and Rango complex inh 2.3%.
`Cc1ccc(S(=O)(=O)N2CCC(C(=O)OCC(=O)N3CC(C)CC(C)C3)CC2)cc1C` (stereo not given) gave Rango dissoc inh 0% and Rango complex inh 1.2%.
Screening Cc1c(Cl)c(C(=O)Nc2nc3ccccc3n2CCN2CCCCC2)nn1C returned miR-21 reporter -23% and GLA inh pH 4.5 2.
Screening COc1cccc2cc(C(=O)n3ccc(C)n3)c(=O)oc12 returned Rango dissoc inh 11%, miR-21 reporter -12%, GLA inh pH 4.5 -3 and Rango complex inh 5.4%.
For COc1cc(OC)cc(C(=O)N[C@H](C(=O)Nc2ccc(NC(C)=O)cc2)C(C)C)c1 the results were Rango dissoc inh 0%, miR-21 reporter -1%, GLA inh pH 4.5 1 and Rango complex inh 3.4%.
For COc1cccc(NC(=O)CSc2nnc(Cc3cccn3C)n2-c2ccc(F)cc2)c1 the results were Rango dissoc inh 8%, miR-21 reporter 3%, GLA inh pH 4.5 -11 and Rango complex inh -0.5%.
Cc1cc(C)n(-c2ccc(Oc3ccccc3)c(S(=O)(=O)O)c2)n1 was read as Rango dissoc inh 2%, miR-21 reporter 0%, GLA inh pH 4.5 -3 and Rango complex inh 1.5%.
`C(=NOCc1ccccc1)c1cccnc1` gave Rango dissoc inh 1% and Rango complex inh -1.9%.
`CCOc1ccccc1NC(=O)NNS(=O)(=O)c1cc(C)ccc1C` gave Rango dissoc inh 2%, miR-21 reporter -1% and Rango complex inh -3.0%.
Screening C=CCn1c2ccccc2n2nc(C)c(=O)nc12 returned Rango dissoc inh 3%, miR-21 reporter 1%, GLA inh pH 4.5 3 and Rango complex inh 0.0%.
Screening Cc1ccc(Cc2c(C)nc3nc(SCC(=O)NCc4ccco4)nn3c2C)cc1 returned Rango dissoc inh -4%, miR-21 reporter 16%, GLA inh pH 4.5 1 and Rango complex inh 1.7%.
For OCc1nc2ccccc2n1CCCOc1ccc(Br)cc1 the results were Rango dissoc inh -4%, miR-21 reporter -28%, GLA inh pH 4.5 4 and Rango complex inh -3.9%.
COC(=O)Cc1c(O)ccn(CCc2c[nH]c3ccc(OC)cc23)c1=O was read as Rango dissoc inh -5%, miR-21 reporter 1%, GLA inh pH 4.5 2 and Rango complex inh 3.0%.
CC(=O)Oc1ccc(C(=O)Nc2cc(C)ccc2NC(=O)COc2ccccc2)cc1 was read as Rango dissoc inh -3%, miR-21 reporter -1%, GLA inh pH 4.5 -1 and Rango complex inh -4.8%.
Screening CN(CCC#N)C(=O)CSc1ncnc2sc(-c3ccccc3)cc12 returned Rango dissoc inh 2%, miR-21 reporter -18%, GLA inh pH 4.5 0 and Rango complex inh inconclusive.

Some of these compounds in order of molar mass, ascending:
`C(=NOCc1ccccc1)c1cccnc1` gave Rango dissoc inh 1% and Rango complex inh -1.9%.
Screening C=CCn1c2ccccc2n2nc(C)c(=O)nc12 returned Rango dissoc inh 3%, miR-21 reporter 1%, GLA inh pH 4.5 3 and Rango complex inh 0.0%.
Screening Cc1c(Cl)c(C(=O)Nc2nc3ccccc3n2CCN2CCCCC2)nn1C returned miR-21 reporter -23% and GLA inh pH 4.5 2.

(continued)
Cc1ccc(NC(=O)CN2CCC(Cc3ccccc3)CC2)cc1S(=O)(=O)N(C)C was read as Rango dissoc inh 11%, miR-21 reporter 10%, GLA inh pH 4.5 -6 and Rango complex inh 4.1%.
`CC(/C=C/c1ccccc1)=N\NC(=O)CSc1ccccn1` gave Rango dissoc inh 0%, miR-21 reporter -17%, GLA inh pH 4.5 -3 and Rango complex inh -2.5%.
Screening Cc1ccc(C)c(Cn2nnc3c(=O)[nH]c(C4CCCN(C(=O)C5CCC5)C4)nc32)c1 (stereo not given) returned Rango dissoc inh -5%, miR-21 reporter -4%, GLA inh pH 4.5 1 and Rango complex inh 1.6%.
`O=C(COc1ccc2c3c(c(=O)oc2c1)CCCC3)N1C[C@H]2C[C@@H](C1)c1cccc(=O)n1C2` gave Rango dissoc inh -22%, miR-21 reporter 2% and Rango complex inh -0.4%.
COc1ccc(/C=N\NC(=O)c2ccc(-c3ccccc3)cc2)cc1COC(C)=O was read as Rango dissoc inh 1%, miR-21 reporter 5% and Rango complex inh -1.0%.
For O=C(CCNC(=O)c1ccc(Cl)cc1)NCCCN1CCOCC1 the results were Rango dissoc inh -3% and Rango complex inh inconclusive.
Screening Cc1ccc(-n2c(=O)[nH]c3ncccc3c2=O)cc1 returned Rango dissoc inh -17%, miR-21 reporter 1%, GLA inh pH 4.5 -6 and Rango complex inh -5.0%.
For CC(=O)SCC(=O)N=c1sc2cc(F)ccc2n1C the results were Rango dissoc inh 1%, miR-21 reporter -7%, GLA inh pH 4.5 6 and Rango complex inh 0.8%.
CCc1cc2c(NCCO)ncnc2s1 was read as Rango dissoc inh 11%, miR-21 reporter 0%, GLA inh pH 4.5 5 and Rango complex inh 2.8%.
C=CCc1cc(OC)ccc1OCCN(C)Cc1ccccc1 was read as Rango dissoc inh 4%, miR-21 reporter -8%, GLA inh pH 4.5 3 and Rango complex inh 4.8%.
`COc1cccc(C(=O)NC(C)C(c2cccs2)N2CCN(C)CC2)c1` (stereo not given) gave Rango dissoc inh -1%, miR-21 reporter -7%, GLA inh pH 4.5 -2 and Rango complex inh -3.2%.
For CCOC(=O)CC1CCCCN1Cc1nc(-c2ccc(F)c(OC)c2)oc1C (stereo not given) the results were Rango dissoc inh -6%, miR-21 reporter -1%, GLA inh pH 4.5 -26 and Rango complex inh -4.1%.
`CCN1CCN(C2=C(NS(=O)(=O)c3ccccc3)C(=O)c3ccccc3C2=O)CC1` gave Rango dissoc inh -9%, miR-21 reporter 13% and Rango complex inh -0.3%.
Screening O=C(Cc1c(Cl)cccc1Cl)OCc1ccccn1 returned Rango dissoc inh -1%, miR-21 reporter -66% and Rango complex inh -1.0%.
For COCC(=O)NC1CC2CCCC(C1)N2Cc1ccccc1 (stereo not given) the results were Rango dissoc inh 8%, miR-21 reporter -4%, GLA inh pH 4.5 7 and Rango complex inh -0.2%.
Screening CCN(CC)c1ccc(NC(=O)C2CCCN(S(=O)(=O)c3cnc[nH]3)C2)c(C)c1 (stereo not given) returned Rango dissoc inh 17%, miR-21 reporter -7%, GLA inh pH 4.5 -1 and Rango complex inh 3.2%.
For COC(=O)c1cc(C(=O)OCC(=O)N(C)c2ccccc2)cc([N+](=O)[O-])c1 the results were Rango dissoc inh 18%, miR-21 reporter 0% and Rango complex inh 7.6%.
For CC(C)(C)OC(=O)N1Cc2cc3ccccc3nc2C1CO (stereo not given) the results were Rango dissoc inh -15%, miR-21 reporter -6%, GLA inh pH 4.5 3 and Rango complex inh -0.4%.
`CCCCSc1nnc(-c2ccc(C)cc2)n1C` gave Rango dissoc inh -10%, miR-21 reporter -41%, GLA inh pH 4.5 15 and Rango complex inh -0.2%.
For O=C1C2CCCCN2C(=O)N1CCCCN1CCN(c2cccc(C(F)(F)F)c2)CC1 (stereo not given) the results were Rango dissoc inh -2% and Rango complex inh -0.5%.
`Cc1ccc(O)c(C=Nc2cc(C)ccc2O)c1` gave Rango dissoc inh -10%, miR-21 reporter -1%, GLA inh pH 4.5 -13 and Rango complex inh -0.5%.
CC1(NC(=O)CN2CCN(c3cnn(-c4ccccc4)c(=O)c3Cl)CC2)CCS(=O)(=O)C1 (stereo not given) was read as Rango dissoc inh -4% and Rango complex inh -0.2%.
Screening O=C(O)Cn1cnc2c(oc3ccccc32)c1=O returned Rango dissoc inh -10%, miR-21 reporter -10%, GLA inh pH 4.5 0 and Rango complex inh 3.9%.
`O=C(CCc1ccccc1)c1c(O)cc(O)cc1O` gave Rango dissoc inh 2%, miR-21 reporter -15%, GLA inh pH 4.5 0 and Rango complex inh 8.0%.
`O=C(NCCc1ccccc1Cl)C1CCC(=O)N(Cc2ccc(Cl)cc2)C1` (stereo not given) gave Rango dissoc inh 12%, miR-21 reporter 1% and Rango complex inh 0.1%.
Screening COc1ccc(C2CC(=O)c3cnc(N4CCN(Cc5ccccc5)CC4)nc3C2)cc1 (stereo not given) returned Rango dissoc inh -17%, miR-21 reporter 2%, GLA inh pH 4.5 -3 and Rango complex inh 0.1%.
For Cc1ccc(-c2nnc(N3CCCCC3)c3ccccc23)cc1S(=O)(=O)N1CCN(C)CC1 the results were Rango dissoc inh 0%, miR-21 reporter -2%, GLA inh pH 4.5 -9 and Rango complex inh 0.9%.
`Cc1ccc(C(=O)N2CCN(c3ccc([N+](=O)[O-])c(NCc4ccco4)c3)CC2)cc1` gave Rango dissoc inh 10%, miR-21 reporter -21%, GLA inh pH 4.5 2 and Rango complex inh 6.1%.
Screening O=C(Cn1c(NCCCO)nc2ccccc21)c1ccc(Br)cc1 returned Rango dissoc inh 8%, miR-21 reporter -16%, GLA inh pH 4.5 -14 and Rango complex inh 0.5%.
`O=C(O)Cn1ccc2ccccc21` gave Rango dissoc inh 24%, miR-21 reporter 5%, GLA inh pH 4.5 -1 and Rango complex inh -0.8%.
CC(C(=O)Nc1ccccc1)N1C(=O)c2ccccc2C1=O (stereo not given) was read as Rango dissoc inh 36%, miR-21 reporter 0%, GLA inh pH 4.5 5 and Rango complex inh 3.0%.
For COc1ccc(C(=O)Cn2cnc3ccc(Cl)cc3c2=O)cc1F the results were Rango dissoc inh -1%, miR-21 reporter -5% and Rango complex inh 2.1%.
`N#Cc1cnn2c(-c3cccc(C(F)(F)F)c3)ccnc12` gave Rango dissoc inh 11%, miR-21 reporter -10%, GLA inh pH 4.5 5 and Rango complex inh 5.9%.
Screening N#C/C(=C\c1ccc(-c2cccc([N+](=O)[O-])c2)o1)c1nnc(N2CCOCC2)n1-c1ccccc1 returned miR-21 reporter 4% and GLA inh pH 4.5 2.
For Cc1cc2cc(CNC(=O)Cc3ccc([N+](=O)[O-])cc3)ccc2[nH]1 the results were Rango dissoc inh 3%, miR-21 reporter -5%, GLA inh pH 4.5 -1 and Rango complex inh 0.8%.
Screening CCCCc1cc(=O)oc2cc(C)cc(OCC(=O)Nc3ccccn3)c12 returned Rango dissoc inh 1%, miR-21 reporter -24% and Rango complex inh -2.1%.
Screening CCn1cc(CNC(=O)c2ccc(C)s2)cn1 returned Rango dissoc inh 3%, miR-21 reporter -19%, GLA inh pH 4.5 15 and Rango complex inh 5.5%.
Screening CC(C)c1cccc(C(C)C)c1NC(=O)CN1CCCC1 returned Rango dissoc inh 10%, miR-21 reporter -3% and Rango complex inh -4.8%.
Screening COc1ccccc1NS(=O)(=O)c1ccc(NN=C2CCCCC2)c([N+](=O)[O-])c1 returned Rango dissoc inh 10%, miR-21 reporter 4%, GLA inh pH 4.5 -4 and Rango complex inh -1.8%.
Screening Cc1cc(NC(=O)c2ccccc2Cl)ccc1NC(=O)c1ccccc1Cl returned Rango dissoc inh -8%, miR-21 reporter -17% and Rango complex inh -0.3%.
`Cc1nc(C)c(-c2csc(Nc3ccc(C(=O)O)c(O)c3)n2)s1` gave Rango dissoc inh 28%, miR-21 reporter -3% and Rango complex inh 2.6%.
For CCOc1cc(C2C(C#N)=C(N)SC(N)=C2C#N)ccc1OCCN1CCOCC1 the results were Rango dissoc inh inconclusive, miR-21 reporter -7%, GLA inh pH 4.5 -4 and Rango complex inh inconclusive.
`COc1cc(CNCc2cccnc2)ccc1OCC(=O)NC(C)(C)C` gave Rango dissoc inh -17%, miR-21 reporter -1%, GLA inh pH 4.5 4 and Rango complex inh 1.7%.
Screening FC(F)(F)c1ccccc1NC(=S)N1CCN(c2ncccn2)CC1 returned Rango dissoc inh -4%, miR-21 reporter 23%, GLA inh pH 4.5 -3 and Rango complex inh 0.3%.
For CC(c1c(O)c2ccccc2[nH]c1=O)C1(C)CCC(O)C(C)(C)O1 (stereo not given) the results were Rango dissoc inh 0%, miR-21 reporter 1%, GLA inh pH 4.5 5 and Rango complex inh -0.6%.
O=C(c1ccnc(Cl)c1)N1CCCC(Nc2ccc(F)cc2)C1 (stereo not given) was read as Rango dissoc inh -5%, miR-21 reporter 0% and Rango complex inh 1.6%.
